# Source: PubChem BioAssay
# MLL AF4-AF9 inh = inhibitors of human MLL-AF4/AF9 interaction. inhibition, % at 10 µM. AlphaScreen, biotin-AF4 peptide binding to FLAG-AF9. P42568. AID 651704. 350,000 tested, 0.47% active;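 active = every replicate reaching a set inhibition limit, whatever the replicate mean, cut at about 25% in these data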;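 note: 0% = plate neutral control median and 100% = total signal loss; the record names both 10 and 1 µM as test concentration; the first replicate is given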
# Target sequence (P42568 whole entry, looked up): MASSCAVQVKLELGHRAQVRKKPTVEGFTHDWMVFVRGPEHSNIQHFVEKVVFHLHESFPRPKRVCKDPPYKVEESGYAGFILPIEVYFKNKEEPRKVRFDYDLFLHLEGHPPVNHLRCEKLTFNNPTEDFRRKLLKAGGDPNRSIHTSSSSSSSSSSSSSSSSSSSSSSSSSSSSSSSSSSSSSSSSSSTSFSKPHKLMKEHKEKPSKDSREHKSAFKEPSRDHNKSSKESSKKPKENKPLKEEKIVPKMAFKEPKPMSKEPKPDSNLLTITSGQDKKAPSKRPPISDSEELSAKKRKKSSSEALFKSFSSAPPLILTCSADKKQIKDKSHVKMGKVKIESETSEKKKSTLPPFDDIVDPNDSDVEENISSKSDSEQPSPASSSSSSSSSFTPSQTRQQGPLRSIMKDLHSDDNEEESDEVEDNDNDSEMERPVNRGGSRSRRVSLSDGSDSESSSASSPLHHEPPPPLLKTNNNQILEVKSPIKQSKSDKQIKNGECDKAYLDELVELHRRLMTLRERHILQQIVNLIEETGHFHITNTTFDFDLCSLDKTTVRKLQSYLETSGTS
# Beta cell apopt = beta cell apoptosis inhibition. 300,000 tested, 0.8% active. INS-1E cytokine-induced death, ATP luminescence, 48 h; percent of positive-control rescue, neutral wells zero. protection from apoptosis, % (concentration not given with the values). AID 435005;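 active = all replicates at 75% or more, or half of them and the mean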;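 note: 0% = cytokine-treated negative control wells and 100% = positive control rescue; higher means more ATP so stronger rescue from cytokine killing; wells of about 40 µL received 100 nL stock; the first replicate is given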
# UCH37 DUB inh = inhibitors of human deubiquitinating enzyme UCH37; purified proteasome/UCH37, Ub-AMC cleavage fluorescence; inhibition, % (test concentration not listed); 330,000 tested, 0.33% active; AID 588478;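 active = mean of two replicates above 20%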;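 note: 0% = compound-free wells with enzyme and 100% = wells lacking proteasome; stock transfer was 100 nL into about 20 µL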
#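 assay system = human UCH37 enzyme supplied as purified proteasome complex | amount = proteasome at 0.15 nM in the dispensed enzyme solution | schedule = 30 min compound-proteasome preincubation then 25 min substrate reaction, room temperature | measured by = fluorescence, ex 355 nm, em 460 nm | benchmarks = no-proteasome wells (full inhibition) and compound-free wells (no inhibition)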
# Ecoli growth = inhibitors of Escherichia coli growth; OD600, 23 h; stronger effect = lower value; OD600 absorbance (no concentration beside the values); 330,000 tested, 0.21% active; AID 1053175;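 active = OD600 absorbance below the run mean of sample wells minus 3.6 SD, in any replicate, cut at about 0.56 in these data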;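 note: stock transfer was 300 nL into about 60 µL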
# A1 inh = inhibitors of the anti-apoptotic protein A1, read as caspase activation; MEF A1-2A-BIM cells, Caspase-Glo 3/7 luminescence, 3 h; percent of clofoctol response, vehicle zero; caspase activation, % (concentration not given with the values); 330,000 tested, 0.066% active; AID 2462;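 active = over half of replicate activation scores above 10%, or exactly half above 10 with the replicate mean above 10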;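 note: wells of about 30 µL received 50 nL stock; many hits fall short of the cut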
# FGF22 binding = shifts melting point of recombinant human FGF22 | Q9HCT0 | recombinant FGF22 thermal shift, SYPRO orange fluorescence; percent of sucrose octasulfate shift, DMSO zero | calls only at 9.99 µM | 340,000 tested, 1.5% active;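 active = melting point raised past a set limit in the mean and every replicate; three in four hits are not shown here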
# Target sequence (Q9HCT0 whole entry, looked up): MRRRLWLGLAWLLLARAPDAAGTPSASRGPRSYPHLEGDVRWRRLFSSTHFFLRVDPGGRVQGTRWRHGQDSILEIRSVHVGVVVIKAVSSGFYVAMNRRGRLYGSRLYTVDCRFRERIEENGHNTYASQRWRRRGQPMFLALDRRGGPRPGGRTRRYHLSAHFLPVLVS
# T cruzi repl = T. cruzi replication inhibition; T. cruzi beta-gal in NIH3T3, luminescence, 90 h; AID 1885; 300,000 tested, 1.4% active; inhibition, % (concentration not given with the values);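 active = mean inhibition across valid replicates above about 55%, limit read from the data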;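 note: signal also drops with host cell toxicity which is not excluded here; 0% = plate median of DMSO wells and 100% = zero luminescence signal; higher percent means less beta-gal luminescence so fewer parasites; stock transfer was 50 nL into about 50 µL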
# rRNA inh HTS = inhibits bacterial ribosomal RNA function over humanized ribosomes | E. coli WT GFP vs humanized-ribosome RFP mutants, fluorescence, 24 h; stronger effect = lower value; DMSO median 0, no signal -100 | GFP signal change (wild-type ribosome), % (test concentration not listed) | 350,000 tested, 1.6% active;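 active = significant combined selectivity score with lowered wild-type GFP, culture density cut under 30%, mutant RFP and density less affected; inactive = any of these conditions unmet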; note: one replicate is shown; some compounds called inactive have numbers as strong as hits
# rRNA inh HTS OD600 = second read-out of rRNA inh HTS, no call of its own (marks repeat the call); OD600 change, %; measured here: OD600 growth;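 optical density of the mix in the first replicate; 0 = DMSO median and -100 = no signal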
# rRNA inh HTS RFP = further read-out of rRNA inh HTS, marked with its call; RFP signal change, %; measured here: RFP humanized mutant strains;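 first replicate; 0 = DMSO median and -100 = no signal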
# Numbers without * were called inactive; i = inactive; nt = no result given; & = joins results of further samples. A portion of the library. The share of hits here may be higher or lower than overall.
SMILES,MLL AF4-AF9 inh,Beta cell apopt,UCH37 DUB inh,Ecoli growth,A1 inh,FGF22 binding,T cruzi repl,rRNA inh HTS,rRNA inh HTS OD600,rRNA inh HTS RFP
COc1cc(CNc2ccc3c(c2)OCCO3)ccc1OCC(N)=O,4.0,2,-0.6,0.66,-1.0,i,-12,10,1,1.6
O=c1c2ccccc2c(-c2ccc(F)cc2)nn1-c1ccc(C(F)(F)F)cc1,nt,13,-1.1,0.7,0.6,nt,16,nt,nt,nt
CCC(C)Sc1cccc(-c2nc3cc(C)ccn3c2NC2CCCCC2)c1 (centres undefined),4.6&-0.1,nt,-100,0.7,nt,i,nt,2,-3,20
Cn1nnnc1SCc1cc(=O)[nH]c2ccccc12,nt,-2,0.7,0.72,0.3,nt,-2,nt,nt,nt
Cc1ccc2[nH]c(C)c(CCNC(=O)c3cc4cc([N+](=O)[O-])ccc4oc3=O)c2c1,nt,3,4.6,0.67,0.2,nt,-15,nt,nt,nt
O=[N+]([O-])c1ccc(N2CCOCC2)cn1,-0.1,0,13,0.75,0.3,i,-5,18,14,2.1
CCC(C)[C@H]1CNC(=S)N1CCc1cccc2ccccc12 (some centres undefined),nt,-1,4.1,nt,0.9,i,0,-36,-49,6.2
CC(C)(C)c1ccc(C(=O)NCCC(=O)NNC(=O)COc2ccccc2F)cc1,-5.2,-5,1.0,0.72,-1.6,i,nt,9,-1,7.4
Cn1cc(/C=C/c2cc[n+](C)cc2)c2cc(Cl)ccc21,7.7,95*,15,0.66,-0.5,i,50,60,-13,9.8
O=C(N/N=C/c1ccc2c(c1)OCO2)c1cc2ccccc2o1,-0.6,2,nt,nt,0.2,i,-9,11,5,3.4
COc1cc(OC)c2c(-c3cccc(-c4ccc(N(C)C)cc4)c3)cc(=O)oc2c1,9.0,nt,0.8,0.71,nt,i,nt,3,8,2.0
CCSc1nsc(NC(=O)Nc2cccc(OC)c2)n1,-1.2,nt,2.8,0.6,-3.3,nt,1,-59,-82,-24

# Only MLL AF4-AF9 inh and T cruzi repl, for some of the entries so far:
SMILES	MLL AF4-AF9 inh	T cruzi repl
Cn1cc(/C=C/c2cc[n+](C)cc2)c2cc(Cl)ccc21	7.7	50
COc1cc(CNc2ccc3c(c2)OCCO3)ccc1OCC(N)=O	4.0	-12
COc1cc(OC)c2c(-c3cccc(-c4ccc(N(C)C)cc4)c3)cc(=O)oc2c1	9.0	nt
Cn1nnnc1SCc1cc(=O)[nH]c2ccccc12	nt	-2
CC(C)(C)c1ccc(C(=O)NCCC(=O)NNC(=O)COc2ccccc2F)cc1	-5.2	nt
Cc1ccc2[nH]c(C)c(CCNC(=O)c3cc4cc([N+](=O)[O-])ccc4oc3=O)c2c1	nt	-15

# Next section:
SMILES,MLL AF4-AF9 inh,Beta cell apopt,UCH37 DUB inh,Ecoli growth,A1 inh,FGF22 binding,T cruzi repl,rRNA inh HTS,rRNA inh HTS OD600,rRNA inh HTS RFP
COc1ccc(C2NCCO2)cc1OC (centres undefined),nt,nt,0.4,0.73,1.0,nt,-3,nt,nt,nt
COc1ccc(C2CC(c3ccccc3)=NN2C(=O)c2ccc(Cl)c([N+](=O)[O-])c2)cc1 (centres undefined),nt,19,6.5,0.7,1.1,nt,55*,nt,nt,nt
Clc1ccc(-c2nc(NCCCN3CCOCC3)c3ccccc3n2)cc1,nt,5,nt,nt,-0.7,i,41,-17*,1.8*,1.2*
Cc1ccccc1S(=O)(=O)Cc1ccc(C(=O)NCCN2CCN(Cc3ccccc3)CC2)o1,nt,4,6.6,0.7,0.4,nt,61*,8,9,1.0
Cc1ccc(C(=O)NCc2ccccn2)cc1Cl,nt,-3,1.6,0.68,-0.4,nt,4,nt,nt,nt
CCCN1CCN(CCCNC(=O)CCN2C(=O)COc3ccccc32)CC1,-33,-1,3.5,0.65,-0.2,i,-3,-1,2,0.2
CC1CCN(S(=O)(=O)c2ccc(C(=O)OC(C)C(=O)N(C)C3CCCCC3)cc2)CC1 (centres undefined),-5.4,-1,2.4,0.7,-0.3,i,-2,11,11,-1.2
CC1CCCN(C(=O)C2CCN(c3nc(-c4ccccc4)nc4c3CCC4)CC2)C1 (centres undefined),-0.4,nt,5.6,0.7,1.3,i,21,-11,-26,-2.0
Cc1cc(C)n(-c2cc(N3CCN(S(=O)(=O)c4ccc(C)c(C)c4)CC3)ccc2[N+](=O)[O-])n1,nt,11,3.6,0.72,0.3,nt,20,nt,nt,nt
COC(=O)COc1ccc2c(=O)c(-c3ccccc3OC)coc2c1,-0.7,3,4.3,0.72,0.4,i,0,12,6,-1.2
Cc1cc(C(=O)NN)n[nH]1,-0.5,-3,2.8,0.65,1.5,i,-6,20,15,0.0
O=[N+]([O-])c1ccccc1/C=C/C=N/n1c(-c2ccccc2F)n[nH]c1=S,nt,1,nt,nt,-0.2,i,-16,-21*,-2.4*,1.6*
COc1ccc(CCC(=O)NCCOc2ccc(C)cc2)cc1,-2.1,nt,1.8,0.59,0.4,i,-3,2,8,1.8
CC(C)Cn1c(N)c(C(=O)COC(=O)c2ccccc2Cl)c(=O)n(C)c1=O,-0.1,7,-0.7,0.63,0.6,i,14,-35,-39,-3.4
Cc1cc(C)cc(N(C(=O)Cc2cccs2)C(C(=O)NC2CCCCC2)c2ccccn2)c1 (centres undefined),nt,8,1.7,0.7,1.1,nt,-1,nt,nt,nt
O=C(COc1ccc2c3c(c(=O)oc2c1)CCC3)NCC(O)c1ccccc1 (centres undefined),-5.0,5,-3.4,0.71,-0.1,i,5,7,11,-1.0
COc1cccc(CN(C)CC(=O)Nc2cc3oc4ccccc4c3cc2OC)c1,nt,9,-18,0.7,0.1,nt,39,nt,nt,nt
CC12CC(NC(=O)N1c1cccc(C(=O)Nc3ncn[nH]3)c1)c1ccccc1O2 (centres undefined),nt,-1,-2.3,0.7,-1.1,nt,6,nt,nt,nt
CC(NC(=O)c1ccccc1)c1nnc(SCC(=O)Nc2nnc(C3CC3)s2)n1C (centres undefined),-14,-7,2.5,0.68,1.3,i,-7,2,3,-0.7
CCCN(C(=O)CCl)C1=CCCCC1,-5.4,-5,4.5,0.71,-0.3,i,26,5,4,-4.6
O=C(CCn1cnc2ccccc2c1=O)Nc1ccc(Cl)c(Cl)c1,nt,-4,3.5,0.69,nt,nt,14,nt,nt,nt
CC(C)(C)NC(=O)C(c1ccc(F)cc1)N(Cc1ccco1)C(=O)c1csnn1 (centres undefined),nt,-2,0.9,0.71,0.4,nt,3,nt,nt,nt
Cc1ccc2nc3sc(C(=O)NCc4ccco4)c(N)c3cc2c1,nt,0,-2.3,0.72,-3.0,nt,14,nt,nt,nt
O=C(CCl)Nc1ccc(N=Nc2ccccc2)cc1,15,nt,6.9,0.64,nt,i,-66,-33,-29,-2.6
COc1ccccc1NCC(=O)c1ccc(Cl)cc1,3.5,2,2.8,0.72,0.5,i,-14,0,9,2.7
OCCNc1nc(Nc2ccc(Cl)cc2)nc(N2CCCC2)n1,2.0,4,0.1,0.68,-0.6,i,-2,-3,14,0.0
O=C1C2C(C(=O)N1c1ccncc1)C1C=CC2C12CC2 (centres undefined),nt,0,-0.2,0.67,-0.2,nt,-14,nt,nt,nt
O=C(COC(=O)C1C2CC3OC(=O)C1C3C2)Nc1ccccc1 (centres undefined),0.7,-4,1.1,0.69,-0.2,i,-14,3,8,-2.2
CC1CC(NC(=O)c2c(O)nc3sccn3c2=O)CC(C)(C)C1 (centres undefined),2.1,10,-0.8,0.66,-0.1,i,6,-14,-30,1.2
CCc1cc(=O)oc2cc(C)cc(OCC(=O)N[C@@H](CSCc3ccccc3)C(=O)O)c12,2.6,nt,-31,0.71,1.1,i,-13,nt,nt,nt
CN(C(=O)COc1ccc2ccc(=O)oc2c1)C1CCS(=O)(=O)C1 (centres undefined),-23,0,-30,0.68,1.1,i,-2,5,14,-0.7
O=c1c2ccccc2nc(/C=C/c2ccc(Br)cc2)n1CCO,2.3,1,-191,0.67,-0.2,i,-13,19,18,1.5
CCOc1ccc(OCC)c(Nc2cc(C)nc3nc(C)nn23)c1,2.1,-6,0.5,0.72,-2.0,i,10,-3,-8,-1.2
COc1ccc([N+](=O)[O-])cc1N(CC(=O)NCCC1=CCCCC1)S(C)(=O)=O,nt,-1,-0.3,0.73,-1.6,nt,20,nt,nt,nt
CC1=CS(=O)(=O)CC1Sc1nc2ccccc2[nH]1 (centres undefined),nt,nt,1.6,0.68,-1.1,nt,7,nt,nt,nt
COc1ccc(NC(=O)c2c(NC(=O)CCC(=O)O)sc3c2CCCCC3)cc1,-4.1,-2,4.5,0.73,-1.1,i,-4,15,12,1.9
CN1CCN(C(CNC(=O)C(=O)Nc2ccc3c(c2)OCO3)c2ccc(F)cc2)CC1 (centres undefined),0.0,nt,0.9,0.63,0.1,i,42,2,7,-1.4
O=C(CCC(=O)OCC(=O)c1ccc(-c2ccccc2)cc1)Nc1cccc2cccnc12,nt,-2,4.5,0.74,1.0,nt,-6,-1,5,-2.2
CCn1c(C)nc2cc(C(=O)OC(C(F)(F)C(F)F)C(F)(F)C(F)F)ccc21,nt,104*,1.3,0.66,-1.6,nt,21,nt,nt,nt
CCCNS(=O)(=O)c1ccc(OCC(=O)N(C)Cc2ccccc2)cc1,-1.0,16,0.0,0.7,-0.1,i,10,-3,-5,-7.6
CC(C)CN(C(=O)CN(C)CC(=O)Nc1ccccc1C#N)c1c(N)n(CC(C)C)c(=O)[nH]c1=O,-3.9,-3,-2.0,0.71,-1.3,i,nt,2,9,-0.2
CCOc1ccc(CNC(=O)c2ccc3c(c2)N(CC)CCS3)cc1,2.5,0,-32,nt,-0.6,i,38,-1,-4,-0.1

# By substructure, the compounds so far with a COOH group
SMILES,MLL AF4-AF9 inh,Beta cell apopt,UCH37 DUB inh,Ecoli growth,A1 inh,FGF22 binding,T cruzi repl,rRNA inh HTS,rRNA inh HTS OD600,rRNA inh HTS RFP
CCc1cc(=O)oc2cc(C)cc(OCC(=O)N[C@@H](CSCc3ccccc3)C(=O)O)c12,2.6,nt,-31,0.71,1.1,i,-13,nt,nt,nt
COc1ccc(NC(=O)c2c(NC(=O)CCC(=O)O)sc3c2CCCCC3)cc1,-4.1,-2,4.5,0.73,-1.1,i,-4,15,12,1.9
